LT uptake inh: qHTS Assay for Anthrax Lethal Toxin Internalization; Cells, anthrax lethal toxin internalization, FRET ratio (460/530); AID 912, 2007; Potency, µM (titrated, usually from 40 µM), without a hit: at the highest dose activity change, negative = inhibition, most hits filed as inhibitors; actives 0.67% (n = 70,000); active = well fitted falling ratio curve with the 530 nm signal flat; inconclusive = other ratio curves, or a change in one channel alone; inactive = flat curves in the ratio and both channels; the % refers to the ratio; further: on the % scale 0 is the no-effect control and ±100 the full control effect; nearly all actives have a fitted effect of over 50% in size; tested in ME-180 cells; beta-lactamase reporter
Prx2 Sm inh: Schistosoma Mansoni Peroxiredoxins (Prx2). S. mansoni Prx2 activity coupled to TGR/GSH (TGR is thioredoxin glutathione reductase), NADPH fluorescence loss, qHTS; some inactives read as strong as hits. Schistosoma mansoni peroxiredoxin 2 (Prx2). Potency, µM. actives 0.07% (n = 65,000). AID 448, 2006; active means full or partial inhibition curve with a strong effect at the top dose; inconclusive means weaker partial or single-point curve; inactive means no accepted curve; further: series up to 57 µM; many of its hits are not listed in these tables
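Purified S. mansoni TGR and Prx2 in pH 7.4 phosphate buffer with EDTA and Tween-20 were preincubated with compounds for 15 min. Further NADPH/GSH was added, then a 2.5 mM H2O2 aliquot initiated turnover, followed kinetically by NADPH fluorescence.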
* marks the source's active call; other numbers are inactive results; ? = inconclusive; . = no result given; [ ] = remark or other dose. Potency means the concentration at half of the fitted maximal effect. The list is partial; count on the stated rates, not on these rows.

SMILES	LT uptake inh	Prx2 Sm inh
Cc1cc(NC(=O)C2CCCN(S(=O)(=O)c3c(C)noc3C)C2)n[nH]1 (stereo not given)	?	>57
O=C(Nc1cccc(C(F)(F)F)c1)C1C2CC3OC(=O)C1C3C2 (stereo not given)	-6.1%	>57
Cc1ccc(Nc2nc(N)nc(CN3CCN(C)CC3)n2)cc1C	-8.3%	>57
CN1CCN(c2ncc3nc(-c4cc(F)cc(F)c4)c(=O)n(C4CC4)c3n2)CC1	?	>57
C=CCn1c(SCc2nc3ccccc3[nH]2)nnc1-c1ccncc1	.	>57
CCN1CCN(c2ncc(C(=O)Nc3cc(Cl)ccc3OC)c3ccccc23)CC1	-28.9%	>57
CC(C)=C(NC(=O)c1ccccc1)C(=O)NCCCC(=O)O	-21.9%	.
COc1cc(-c2nc3cnccc3n2C)cc(OC)c1OC	6.3%	>57
Cc1occc1C(=O)Nc1cccnc1	-7.2%	>57
Cc1ccc(S(=O)(=O)N(C)Cc2nc(-c3ccccn3)no2)cc1	-19.6%	>57
CC(=O)Oc1ccccc1C(=O)Oc1ccc(/C=N/n2cnnc2)cc1	5.0%	.
CC(=O)c1ccc(OCCCC(=O)OCC(=O)N2CCN(c3ccccc3)CC2)cc1	?	>57

Next part, overlapping the part above by 3 compounds.
SMILES	LT uptake inh	Prx2 Sm inh
Cc1ccc(S(=O)(=O)N(C)Cc2nc(-c3ccccn3)no2)cc1	-19.6%	>57
CC(=O)Oc1ccccc1C(=O)Oc1ccc(/C=N/n2cnnc2)cc1	5.0%	.
CC(=O)c1ccc(OCCCC(=O)OCC(=O)N2CCN(c3ccccc3)CC2)cc1	?	>57
O=c1cc(N2CCc3ccccc3C2)[nH]c(=O)n1Cc1ccc(F)cc1	-6.4%	>57
CSc1nc2c(c(=O)n1Cc1ccccc1)SC(C)C2 (stereo not given)	-3.3%	>57
Cc1ccc2c(c1)[C@H]1OCC[C@H]1[C@@H](c1ccncc1)N2	5.2%	>57
COc1ccc2cc(C(c3nnnn3C(C)(C)C)N3CCc4ccccc4C3)c(=O)[nH]c2c1 (stereo not given)	?	>57
CCOC(=O)Cc1csc(NC(=O)c2cnc3scc(C)n3c2=O)n1	-8.8%	>57
COc1ccc(-c2[nH]c(-c3cccc(OC)c3)nc2SCC(=O)NCc2ccco2)cc1	?	>57
Cn1cc(-c2nc3cncnc3n(Cc3ccccc3Cl)c2=O)c2ccccc21	?	>57
C=CCn1c(C)cc(C(=O)CSc2nnc(-c3cccc(S(=O)(=O)N(CC)CC)c3)o2)c1C	?	>57
Cc1[nH]c(=O)[nH]c(=O)c1S(=O)(=O)N1CCCC(C(=O)NCCc2ccccc2)C1 (stereo not given)	-11.4%	>57
C[C@@H](C(=O)Nc1ccc2ccccc2c1)[C@H]1C[C@]1(C)[C@H](NS(=O)(=O)c1ccccc1)c1ccccc1	-2.6%	>57
CC12CC(c3ccccc3O1)C(C(=O)OCc1ccccc1)C(=O)N2 (stereo not given)	-26.9%	>57
COc1cc(OC)cc(-c2nnc(SCC(=O)N3c4ccccc4Sc4ccccc43)o2)c1	-5.5%	>57
COc1cccc(Nc2ncc3nc(-c4cccs4)c(=O)n(C[C@H]4CCCO4)c3n2)c1	-4.8%	>57
Cn1c(=O)c(=O)n(C)c2cc(S(=O)(=O)N3CCC(Cc4ccccc4)CC3)ccc21	-0.8%	>57
COc1ccc2nc3oc(C(=O)NCc4cccs4)cc3cc2c1	2.0%	>57
C[C@H](CN(C)C)C(C#N)(c1ccccc1)c1ccccc1	-0.4%[8 µM]	>57
COCC(=O)Nc1nc2n(n1)C(c1ccccc1)CC(c1ccc(OC)cc1)N2 (stereo not given)	-8.5%	>57
CN(C)Cc1ccccc1-c1cncnc1NCc1ccccc1	-3.4%	>57
CCc1ccc(NC(=O)CS(=O)CC(=O)NCC2OCCc3ccccc32)cc1 (stereo not given)	-0.3%	>57
O=C(c1ccco1)N1CCC2(CC1)CN(Cc1cc(C(F)(F)F)cc(C(F)(F)F)c1)C2	-19.1%	>57
COc1cccc(C(c2nnnn2Cc2ccc(F)cc2)N2CCC(C(N)=O)CC2)c1OC (stereo not given)	-15.8%	>57
CCn1c2ccccc2c2cc(C3N=C(N)Nc4nc5ccccc5n43)ccc21 (stereo not given)	4.5%	>57
COc1ccccc1CNc1ncnc2ccc(-c3c(C)noc3C)cc12	?	>57
CO[C@H]1COC(=O)C/C=C\[C@H](C)[C@@H](NS(=O)(=O)c2ccc(C)cc2)COC(=O)C/C=C\[C@@H]1C	?	.
Cc1cccc2cc(C(c3nnnn3Cc3ccccc3)N3CCN(c4ccccc4)CC3)c(=O)[nH]c12 (stereo not given)	-6.1%	>57
CCCC(=O)NCCCCNC(=O)CCC	2.6%	.
COc1cccc(-c2nccc(NCc3ccccc3OC)n2)c1	?	>57
O=C1OC(c2ccc(O)c(-c3ccccc3)c2)(c2ccc(O)c(-c3ccccc3)c2)c2c(Cl)c(Cl)c(Cl)c(Cl)c21	2.0%[8 µM]	>57
O=C(Nc1cccc(Cl)c1)c1c(O)c2c(n(Cc3ccco3)c1=O)CCCC2	-7.2%	>57
Cc1cc(C(=O)CSc2nnnn2-c2ccc(Cl)cc2)c(C)n1CC1CCCO1 (stereo not given)	-14.5%	>57
COc1ccc(C(=O)N2CCC3(CCCN(c4ccc(-c5ccccc5)cc4)C3)CC2)cc1	-9.5%	>57
O=C(CCSc1nc(-c2ccco2)cc(C(F)(F)F)n1)Nc1ccc2c(c1)OCO2	?	>57
OC(C#CCN1CCCCC1)c1ccccc1 (stereo not given)	-6.1%	.
Cc1ccc(-c2noc(CCC(=O)NCCCN3CCN(c4ccc(F)cc4)CC3)n2)cc1	0.3%	>57
O=c1cccc2n1CC1CC2CN(Cc2c(F)cccc2Cl)C1 (stereo not given)	4.5%	>57
O=C(c1oc2ccccc2c1CSCc1ccccc1)N1CCN(c2ncccn2)CC1	?	>57
Cc1ccc(CN2CCN(CC(=O)N3CCC4(CC3)OCCO4)C2=O)cc1	?	>57
c1ccc(-c2ccc(OCCCn3cncn3)cc2)cc1	.	>57
Cc1cc(N2CCN(c3ccccc3)CC2)nc(NCc2ccccc2)n1	5.7%	>57
COc1cccc(C2=NO[C@@H]3C(=O)N(Cc4ccccc4)C(=O)[C@H]23)c1OC	-1.6%	>57
CCn1c2c(c3cc(Cl)ccc31)CCCC2=O	?	>57
C[C@H](C(=O)c1ccncc1)c1ccccn1	-12.0%[8 µM]	>57
CC1CCCC(NC(=O)CSc2nnnn2C)C1C (stereo not given)	3.9%	>57
CCSc1nnc(NC(=O)CSc2ncccn2)s1	5.7%	.
COC(=O)C(O)(CC(=O)Nc1ccc(OC(F)(F)F)cc1)C(F)(F)F (stereo not given)	14.3%	>57
COCCN(C(=O)CN1CCc2ccccc2C1)c1c(N)n(Cc2ccccc2)c(=O)[nH]c1=O	5.9%	>57
CC(NC(=O)C1CCC1)c1ccccc1 (stereo not given)	-15.3%	>57
O=C(NCc1ccco1)C(c1ccco1)N(C(=O)Cn1nnc2ccccc21)c1ccc2c(c1)CCC2 (stereo not given)	-25.3%	>57
CCCCP(=O)(O)CCC(=O)O	6.2%	>57
CCc1ccc(S(=O)(=O)NCc2cn3c(C)csc3n2)s1	-11.9%	>57
O=C(c1ccc(F)cc1)N1CCN(C2CC3CCC2C3)CC1 (stereo not given)	-7.2%	>57
CC(C(=O)N1CCOCC1)N1c2cccc3cccc(c23)S1(=O)=O (stereo not given)	23.9%	>57
O=C(Cn1nc(Cc2ccncc2)c2ccccc2c1=O)N1CCc2ccccc2C1	-1.5%	>57
CC(=NCC1CCNCC1)C1=C(O)CC(C)(C)CC1=O	1.7%	>57
O=C(Cn1ncc2ccccc21)N1CCN(c2cccc(C(F)(F)F)c2)CC1	1.4%	>57
COc1ccc(C2C(C(C)=O)=C(O)C(=O)N2CCc2ccccc2)c(OC)c1 (stereo not given)	3.1%	>57
O=C1OC(c2ccc(O)cc2)(c2ccc(O)cc2)c2ccccc21	?	.
COCCn1c(=O)c(C)nc2cnc(Nc3ccccc3)nc21	-0.9%	>57
COc1ccccc1Cc1noc(C(C)(C)NC(=O)c2ccccc2)n1	7.2%	>57
Cc1cc(NS(=O)(=O)c2ccc(NC(=O)CCCOc3ccc(Cl)cc3)cc2)no1	9.3%	>57

Looked up above.
Result of CCc1ccc(S(=O)(=O)NCc2cn3c(C)csc3n2)s1 under LT uptake inh: -11.9%
Result of COCCn1c(=O)c(C)nc2cnc(Nc3ccccc3)nc21 under Prx2 Sm inh: >57

The list goes on:
SMILES	LT uptake inh	Prx2 Sm inh
CC[N+](C)(CC)CCC[n+]1c(-c2ccccc2)c2cc(N)ccc2c2ccc(N)cc21	0.4%[3.58 µM]	>57
OC[C@@H]1O[C@@H](n2cnc3c(N[C@H]4CCC[C@@H]4O)ncnc32)[C@H](O)[C@H]1O	?	>57
CN(C)CCCc1c[nH]c2ccccc12	-7.0%[8 µM]	>57
Brc1ccc(-c2csc(/N=C/N3CCOCC3)n2)cc1	?	>57
Cc1cc(-n2c(C)cc(C(=O)CN3C(=O)NC4(CCCCC4)C3=O)c2C)no1	?	>57
CC1(C)CNC(=O)c2sc(NC(=O)CN3CCOCC3)nc2C1	-2.3%	>57
O=C(Nc1ccc(Cl)cc1)N(Cc1cccnc1)Cc1ccco1	?	>57
COC(=O)[C@H]1C2CCC(C(=O)OC)(CC2)[C@H]1C(=O)OC	-7.1%	>57
O=C(Nc1ccccc1)NC1CS(=O)(=O)CC1O (stereo not given)	-20.6%	>57
COc1ccc(C)cc1NC(=O)CN1C(=O)c2ccccc2S1(=O)=O	5.2%	>57
Cc1ccc(-c2cc(C(=O)O)n[nH]2)o1	3.1%	>57
CCC(=O)N1CCN(CCN=CC2=C(O)CC(c3cccs3)CC2=O)CC1 (stereo not given)	3.6%	.
Nc1ccc(Oc2ccc(N)cc2)cc1	4.7%	.
COc1ccc(-n2c(CSc3nc(C)cc(C)n3)nnc2SCC(=O)Nc2nccs2)cc1	-14.7%	>57
CCC1Oc2ccccc2N(CC(=O)NCCN2C(C)CCCC2C)C1=O (stereo not given)	?	>57
O=C(Nc1ncc2c(n1)CC(c1ccco1)CC2=O)c1ccccc1 (stereo not given)	?	>57
CCOCCCNC(=O)C1CC(=O)N(C2CCCC2)C1 (stereo not given)	-8.9%	>57
Cn1cnnc1SCC(=O)N(Cc1ccc2c(c1)OCO2)C1(C(=O)NC2CCCCC2)CCCC1	-8.2%	>57
Cn1c(Cn2nnc3ccccc32)nnc1SCC(=O)NCc1ccc2c(c1)OCO2	5.0%	>57
COc1cccc(Nc2ncc3nc(-c4cn(C)c5ccccc45)c(=O)n(C[C@H]4CCCO4)c3n2)c1	?	>57
CN1CCN(c2ccc(NC(=O)C(C)(C)C)cc2)CC1	8.3%	>57
Cc1ccccc1C(OCC(O)CN1CCCCC1CCO)c1ccccc1 (stereo not given)	15.4%	>57
CC(=O)Oc1cc2oc(=O)cc(C)c2cc1OC(C)=O	?	.
O=C(NC1CCCCC1)c1cc2nc(-c3ccco3)cc(C(F)(F)F)n2n1	-11.6%	>57

One compound at a time (already shown).
Cc1ccccc1C(OCC(O)CN1CCCCC1CCO)c1ccccc1 (stereo not given) as listed: LT uptake inh: 15.4%; Prx2 Sm inh: >57
O=C(Nc1ncc2c(n1)CC(c1ccco1)CC2=O)c1ccccc1 (stereo not given) as listed: LT uptake inh: ?; Prx2 Sm inh: >57
CCC1Oc2ccccc2N(CC(=O)NCCN2C(C)CCCC2C)C1=O (stereo not given) as listed: LT uptake inh: ?; Prx2 Sm inh: >57

Further structures follow.
SMILES	LT uptake inh	Prx2 Sm inh
O=S(=O)(Nc1ccc(Cc2ccncc2)cc1)N1CCCC1	-2.1%	>57
COc1ccc(CNC(=O)[C@H](C)[C@@H]2C[C@@]2(C)[C@@H](NC(=O)OCc2ccccc2)c2ccccc2)cc1OC	-9.7%	>57
Cn1nc(-c2ccc(Cl)cc2)c2cc(C(=O)NC3CC3)sc21	-1.7%	>57
O=C(Nc1ccccc1N1CCN(C(=O)c2ccc(Cl)cc2)CC1)c1ccc2c(c1)OCO2	?	>57
CCOCCCNC(=O)N[C@@H](Cc1ccccc1)C(=O)OC	-4.9%	>57
CC(C)Oc1ccc(C2CC(=O)NC3=C2C(=O)CCC3)cc1 (stereo not given)	5.9%	>57
COCCCn1c(=N)c(C(=O)NCC2CCCO2)cc2c(=O)n3ccccc3nc21 (stereo not given)	?	>57
Cc1cc(=O)[nH]c2c1c(=O)[nH]n2C1CC(C)N(C)CC1C (stereo not given)	-4.8%	>57
Cc1ccc(S(=O)(=O)NCCC(=O)Nc2ccc3c(c2)OCO3)cc1	10.9%	>57
Cc1ccc(S(=O)(=O)Nc2ccccc2C(=O)c2ccc(C)c(C)c2)cc1	2.0%[8 µM]	>57
CCCCCCCCCCCCOS(=O)(=O)O	?	.
COc1cccc(CNC(=O)C2CCN(c3cnccn3)CC2)c1	-4.7%	>57
C/C=C/C1Oc2ccc(OC)cc2N2C(=O)C(C)C(OCOC)C12 (stereo not given)	-8.9%[8 µM]	.
COc1ccc(-c2noc(CCC(=O)N3CCN(c4cccc(C(F)(F)F)c4)CC3)n2)cc1	?	>57
O=C(O)c1ccccc1Nc1cccc(C(F)(F)F)c1	1.4%[3.58 µM]	>57
